# Bead autofluor: compound fluorescence in toxin protease inhibitor counterscreen. fluorescence intensity (test concentration not listed). 360,000 compounds, 3.1% hits. AID 624483. compound autofluorescence counterscreen, microsphere flow cytometry; hits give high values;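 active means at least 3 SD above the mean of all compounds, about 16000 in these data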;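 further: 100 nL of 1 mM stock went into each well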
# Sa RN4220 lethal: growth inhibition of S. aureus RN4220, primary screen, OD600; 16 h; inhibition, % (no concentration beside the values); 330,000 compounds, 0.33% hits;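 active means z-score of -3 or lower and OD600 up to 0.18 on both plates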;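 further: plate controls were untreated cells for no effect and reference antibiotic for full effect; stock transfer was 100 nL into about 80 µL; one replicate is shown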
# ugtP null kill: growth inhibition of ugtP-null S. aureus, primary screen, RN4220 ugtP deletion, OD600 | 330,000 compounds, 0.54% hits | 16 h; some inactives read as strong as hits | growth inhibition, % (no concentration beside the values);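 active means z-score under -3 and OD600 up to 0.15 on both plates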;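 further: plate controls were untreated wells for no effect and antibiotic for full effect; wells of about 80 µL received 100 nL stock; the first replicate is given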
# PrP UTR inh: inhibition of PrP 5' UTR reporter expression; AID 488862, 2010; cell-based PrP 5' UTR mRNA reporter, plate reader; inhibition, % (no concentration beside the values); 340,000 compounds, 0.35% hits;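 active means every replicate at 50% or more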;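 further: 0 = median of the neutral control wells; tested in H4 reporter cells; numbers are from one replicate; inactives centre near -14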
# BJeLR viability: MLPCN primary cell-based screen for lethality selective to Ras in HRASV12 cells | AID 1554, 2009 | BJeLR (HRASV12) viability, CellTiter-Glo ATP luminescence, 48 h; reference of the scale not given here | 300,000 compounds, 0.17% hits | inhibition, % (no concentration beside the values);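 active means replicate mean above 50%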;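 further: 50 nL library stock added to about 25 µL; numbers are from one replicate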
# Mtb hypoxia inh: PubChem AID 1159583; M. tuberculosis hypoxia-regulated fluorescent reporter, fluorescence; fluorescence inhibition, % (concentration not given with the values); 300,000 compounds, 0.1% hits;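 active means 35 to 45% if threefold the growth effect, above 45% if 1.5-fold the growth effect; inactive means the rest, general growth blockers included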;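 further: wells of about 50 µL received 100 nL stock; 0% = vehicle wells and 100% = reference inhibitor wells; whole bacteria with a GFP reporter of the hypoxia response; strong numbers were not always called active; many hits fall short of the cut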
# Mtb hypoxia inh growth: also measured in Mtb hypoxia inh; calls as there; growth inhibition, %; measured here: M. tuberculosis growth (absorbance);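 0% = vehicle and 100% = reference antibiotic; read after six days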
# * hit, by the source's call; . = not tested or not shown.
# Codes – A = Bead autofluor; B = Sa RN4220 lethal; C = ugtP null kill; D = PrP UTR inh; E = BJeLR viability; F = Mtb hypoxia inh; G = Mtb hypoxia inh growth
COc1ccc(-c2c(C3C4C=CCC[C@@]4(C)C(=O)N3Cc3ccccc3)ccc3ccccc23)cc1OC (stereo partly specified)
  A = .	B = -14	C = -7	D = .	E = .	F = 3	G = 10

O=[N+]([O-])c1ccc(Cl)cc1N1CCOCC1
  A = 3324	B = -0.6	C = -10	D = -5	E = 0	F = 1	G = 5

COc1ccc(CCN2CC(C(=O)Nc3nnc(Cc4ccccc4)s3)CC2=O)cc1OC (stereo unspecified)
  A = 4164	B = 4.3	C = 4	D = -15	E = .	F = -12	G = -6

COc1ccc(OC)c(NC(=O)CSc2ccc3nnc(-c4ccccn4)n3n2)c1
  A = 6223	B = -0.3	C = 3	D = -20	E = 2	F = 2	G = 5

COc1ccc(N2CCN(c3cc(C)c4cccc(C)c4n3)CC2)cc1
  A = 3684	B = .	C = .	D = -12	E = 10	F = .	G = .

O=C(N/N=C\c1ccc(CNS(=O)(=O)c2ccccc2)o1)C(=O)Nc1ccc(F)cc1
  A = 2135	B = .	C = .	D = -11	E = -8	F = .	G = .

Cc1cccn2c(=O)c3cc(S(=O)(=O)c4ccc(F)cc4)c(=N)n(Cc4ccco4)c3nc12
  A = 4263	B = 3.9	C = -1	D = -4	E = 4	F = 3	G = -1

OC1CCCN(c2c3c(nc4cc(-c5cccc(Cl)c5)nn24)CCC3)C1 (stereo unspecified)
  A = 7112	B = 6.1	C = -2	D = -20	E = -6	F = 8	G = 5

C=CCN(c1ccccc1)S(=O)(=O)c1cc2c(cc1C)N(C)CCO2
  A = 4245	B = 6.9	C = 6	D = -11	E = 6	F = 7	G = 2

COc1ccc(-n2nnc3c(=O)n(CC(=O)Nc4cc(C)on4)cnc32)cc1
  A = 2814	B = 2.6	C = -7	D = -39	E = 7	F = -10	G = 3

O=C1C2C3C=CC(C3)C2C(=O)N1c1ccc2ccccc2c1 (stereo unspecified)
  A = 4075	B = -0.2	C = -2	D = -7	E = -2	F = 10	G = 10

CC(C)CN(C(=O)COC(=O)c1ccc(C#N)cc1)C1CCS(=O)(=O)C1 (stereo unspecified)
  A = 3491	B = 5.7	C = 1	D = -15	E = .	F = 4	G = 11

O=C(COc1ccc2c(-c3ccccc3)cc(=O)oc2c1)NCc1ccccn1
  A = 4338	B = -8.2	C = -3	D = 7	E = 11	F = .	G = .

CN1C(CC(=O)Nc2ccc(Br)cc2)c2ccccc2CC1(C)C (stereo unspecified)
  A = 4162	B = 3.7	C = -1	D = -10	E = 1	F = 0	G = -2

COCCCC1CCN(Cc2nc(-c3ccccc3)no2)CC1
  A = 2402	B = 5.2	C = 12	D = -2	E = 2	F = 19	G = 7

Cc1cccc(NC(=O)c2ccc([N+](=O)[O-])s2)n1
  A = 4064	B = 6.2	C = 1	D = -24	E = -13	F = 19	G = 6

Cc1ccc(-c2nnn(CC(=O)N(CC3CCCO3)C(C(=O)NC3CCCCC3)c3ccc(F)cc3)n2)o1 (stereo unspecified)
  A = 8023	B = 1.4	C = 9	D = -13	E = 17	F = 6	G = -1

Nc1nccc(SCc2ccc(Cl)cc2Cl)n1
  A = 3716	B = 1.7	C = -2	D = -27	E = .	F = 9	G = 6

COc1cccc(S(=O)(=O)NCc2ccc(C(=O)NCc3ccccn3)cc2)c1
  A = 4354	B = 3.1	C = 12	D = -7	E = 2	F = 7	G = -11

Cc1cc(C(=O)NN=Cc2c(C)[nH]c3ccccc23)c(C)o1
  A = 11618	B = -0.5	C = -3	D = 11	E = .	F = -10	G = 4

CC(C)c1ccc(OCC(=O)NNC(=S)NC(=O)c2ccco2)c(Br)c1
  A = 6006	B = 26	C = 9	D = -10	E = 16	F = 15	G = 6

Cc1cccc(CSC2=NCCN2C(=O)c2ccc(S(=O)(=O)N(C)C)cc2)c1
  A = 2549	B = 8.2	C = 4	D = -18	E = 8	F = 1	G = 16

CN1CCN(Cc2cc(COCc3ccccc3)c3cccnc3c2O)CC1
  A = 2498	B = .	C = .	D = 35	E = 26	F = .	G = .

O=C(C1CCN(S(=O)(=O)N2CCC3(CC2)OCCO3)CC1)N1CCOCC1
  A = 9675	B = 2.0	C = -1	D = -23	E = 6	F = 14	G = 6

CNC(=S)NN=C(C)c1ccccc1
  A = .	B = 3.1	C = -1	D = .	E = .	F = 4	G = 16

CC(=O)Nc1ccc(SCC(=O)Nc2ccccc2Oc2ccccc2)cc1
  A = 2021	B = 3.8	C = -14	D = -8	E = 0	F = -13	G = 2

Cc1ccc(C(=O)COc2ccccc2-c2ccccc2)cc1
  A = 2403	B = -2.1	C = 86*	D = 2	E = 5	F = 12	G = 5

CN(C)/C=N/c1nc(-c2ccc3ccccc3c2)cs1
  A = 3768	B = .	C = .	D = -48	E = -9	F = .	G = .

CC(C)(C)n1nnnc1C(c1cccc(C#N)c1)N1CCCc2ccccc21 (stereo unspecified)
  A = 8803	B = 5.2	C = -2	D = 5	E = 6	F = 19	G = 3

COc1ccccc1C1=NOC(Cn2c(NCCCO)nc3c2c(=O)n(C)c(=O)n3C)C1 (stereo unspecified)
  A = .	B = 0.3	C = -3	D = -10	E = -13	F = 11	G = -4

COc1ccc(NC(=O)COC(=O)CCNC(=O)c2ccco2)cc1Cl
  A = 5918	B = 4.4	C = 2	D = -4	E = .	F = 6	G = 7

O=C(CCN1C(=O)/C(=C/c2ccccc2F)SC1=S)NCCCN1CCOCC1
  A = 3525	B = 4.5	C = 1	D = -23	E = -3	F = 8	G = 1

CCCc1ccc(S(=O)(=O)NN=C(C)c2ccc3c(c2)OCO3)cc1
  A = .	B = -4.3	C = -29	D = .	E = .	F = -8	G = 7

COc1ccccc1N(CC(=O)Nc1cc(S(=O)(=O)N(C)C)ccc1C)S(=O)(=O)c1cccs1
  A = 3335	B = 3.0	C = -1	D = -15	E = .	F = 7	G = -2

CCn1c(COc2ccc(=O)n(-c3ccccc3)n2)nnc1SCc1cccc(OC)c1
  A = 9297	B = -1.9	C = -4	D = -15	E = 4	F = -7	G = -11

O=S(=O)(Nc1ccc(-c2ccc(N3CCOCC3)nn2)cc1)c1ccc(Cl)c(Cl)c1
  A = 6573	B = -1.2	C = -6	D = -6	E = 2	F = 7	G = 0

N/C(=N\OC(=O)COc1ccc2ccccc2c1)c1ccccn1
  A = 9809	B = 4.5	C = 15	D = -50	E = -12	F = 7	G = 11

COc1ccc(S(=O)(=O)NC2CCN(Cc3ccccc3)CC2)cc1NC(C)=O
  A = 10823	B = 1.7	C = 3	D = -19	E = .	F = 8	G = 10

COCCn1c(SCC(=O)N2CC(=O)Nc3ccccc32)nnc1-c1ccoc1C
  A = 4566	B = 3.7	C = 5	D = -2	E = -2	F = 10	G = 9

CCn1c(SCC(=O)N/N=C/c2ccccc2OCC(=O)O)nnc1-c1ccc(OC)cc1
  A = 4995	B = .	C = .	D = -21	E = 1	F = .	G = .

COc1ccc(CNC(=O)C(C)n2ccc3cc(S(=O)(=O)N4CCCCCC4)ccc32)cc1 (stereo unspecified)
  A = 7524	B = -4.4	C = 2	D = -10	E = -17	F = 0	G = -12

COC(=O)C(C)Sc1ncnc2c1c(-c1ccccc1)cn2-c1ccc(OC)cc1 (stereo unspecified)
  A = 2096	B = -2.2	C = 11	D = -1	E = 0	F = 3	G = 3

CCOc1cc(NS(=O)(=O)c2ccccc2)c(OCC)cc1NC(=O)c1ccco1
  A = 10400	B = 2.2	C = -4	D = -19	E = -3	F = 11	G = 6

O=C1Nc2cc(Cl)c(Cl)cc2N(O)N1c1ccc(Cl)c(Cl)c1
  A = 7582	B = 6.6	C = -2	D = -32	E = 4	F = 18	G = 9

Cc1ccc(C(=O)Cc2ccccc2)o1
  A = 4342	B = 8.6	C = 1	D = -3	E = 6	F = 4	G = 6

CCOc1ccc(NS(=O)(=O)c2ccc(C(=O)N3CCN(C(C)=O)CC3)cc2)cc1
  A = 6013	B = 1.2	C = 0	D = 3	E = 2	F = -8	G = 2

O=C1NCC(Cc2cccc3ccccc23)N(CCc2cc(C(F)(F)F)cc(C(F)(F)F)c2)C1=O (stereo unspecified)
  A = .	B = 1.1	C = 6	D = .	E = .	F = 9	G = -11

Cc1cc([N+](=O)[O-])ccc1NC(=O)CN1CCN(Cc2ccccc2)CC1
  A = 3617	B = -0.9	C = 2	D = -11	E = -3	F = 6	G = 2

Fc1ccc(NC(=S)NC2CCN(Cc3ccccc3)CC2)cc1
  A = 4050	B = -6.8	C = -19	D = -11	E = .	F = -5	G = 5

CCOC(=O)c1cc(NC(=O)c2cccnc2)ccc1N1CCOCC1
  A = 4050	B = 8.3	C = 6	D = -16	E = .	F = 0	G = -14

# Remaining list, next part:
# Codes – A = Bead autofluor; B = Sa RN4220 lethal; C = ugtP null kill; D = PrP UTR inh; E = BJeLR viability; F = Mtb hypoxia inh; G = Mtb hypoxia inh growth
CC(=O)N1CCN(CC(=O)c2ccc(Br)cc2)CC1
  A = 2144	B = 2.9	C = -5	D = -17	E = -6	F = 7	G = 9

NC(=O)c1ccc(NC(=O)C2CCCC2)cc1
  A = 3402	B = 1.0	C = 0	D = -9	E = -3	F = 15	G = 6

OC(Cc1ccccc1)(c1ccccc1)C1CN2CCC1CC2 (stereo unspecified)
  A = 3254	B = 5.8	C = 0	D = 1	E = -1	F = 5	G = 1

CC(=O)N[C@H]1[C@H](OCc2ccccc2F)O[C@H](COC(C)=O)[C@@H](OC(C)=O)[C@@H]1OC(C)=O
  A = 4491	B = 0.4	C = 1	D = .	E = 1	F = 16	G = 11

Cc1cc(C)n(-c2nc(NCCO)c3c4c(sc3n2)CCCC4)n1
  A = 2820	B = 3.9	C = 1	D = -37	E = -2	F = .	G = .

COc1cc(/C=N/n2nnnc2N)ccc1O
  A = 23466*	B = .	C = .	D = -47	E = 7	F = .	G = .

CC(=O)Nc1ccc(N(C)S(C)(=O)=O)cc1
  A = 8874	B = 2.4	C = 2	D = -23	E = 0	F = 1	G = 0

NC(N)=NN=Cc1ccccc1
  A = .	B = 1.9	C = -3	D = .	E = .	F = 3	G = 3

COc1ccc(NC(=O)Nc2c[nH]c(=O)[nH]c2=O)cc1
  A = 3550	B = 4.1	C = 5	D = -10	E = 0	F = 3	G = -3
